# From PubChem
# Beta cell apopt – beta cell apoptosis inhibition; INS-1E cytokine-induced death, ATP luminescence, 48 h; percent of positive-control rescue, neutral wells zero; protection from apoptosis, % (no concentration beside the values); 300,000 tested, 0.8% active;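 active = all replicates at 75% or more, or half of them and the mean; inconclusive = half reach 75% but not the mean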;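 note: 0% = cytokine-treated negative control wells and 100% = positive control rescue; higher means more ATP so stronger rescue from cytokine killing; wells of about 40 µL received 100 nL stock; the first replicate is given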
# A1 inh – inhibitors of the anti-apoptotic protein A1, read as caspase activation | MEF A1-2A-BIM cells, Caspase-Glo 3/7 luminescence, 3 h; percent of clofoctol response, vehicle zero | caspase activation, % (no concentration beside the values) | 330,000 tested, 0.066% active | AID 2462;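 active = over half of replicate activation scores above 10%, or exactly half above 10 with the replicate mean above 10; inconclusive = replicate mean below 10 yet half the replicates above 10; inactive = over half of replicates below 10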;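 note: wells of about 30 µL received 50 nL stock; many hits fall short of the cut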
# ALR inh – blocks human ALR sulfhydryl oxidase activity. P55789. purified ALR, DTT oxidation, H2O2 HRP-luminol luminescence. inhibition, % (concentration not given with the values). 290,000 tested, 3.8% active;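 active = mean and each replicate at 75% or more; inconclusive = only one of the two met; inactive = neither met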;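 note: stock transfer was 7.5 nL into about 7.5 µL; 0% = neutral wells and 100% = wells with inactivated enzyme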
# rRNA inh HTS – selective bacterial rRNA inhibition in E. coli; GFP signal change (wild-type ribosome), % (concentration not given with the values); 350,000 tested, 1.6% active; E. coli WT GFP vs humanized-ribosome RFP mutants, fluorescence, 24 h; stronger effect = lower value; DMSO median 0, no signal -100; AID 720706;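 active = significant combined selectivity score with lowered wild-type GFP, culture density cut under 30%, mutant RFP and density less affected; inactive = any of these conditions unmet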; note: one replicate is shown; some compounds called inactive have numbers as strong as hits
# Beta2AR agonist – human beta-2 adrenergic receptor agonism by FAP | 340,000 tested, 0.43% active | response, % (test concentration not listed) | Am2.2-beta2AR cells, FAP receptor internalization, flow cytometry; reference of the scale not given here | AID 504454 | P07550;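 active = response above a set limit, near 3 SD of response in nonfluorescent compounds, cut at about 42% in these data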;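 note: stock transfer was 100 nL into about 11 µL; a reference agonist was the positive control; negative values mostly stem from fluorescent compounds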
# T cruzi repl – T. cruzi replication inhibition; T. cruzi beta-gal in NIH3T3, luminescence, 90 h; 300,000 tested, 1.4% active; inhibition, % (no concentration beside the values);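 active = mean inhibition across valid replicates above about 55%, limit read from the data; inconclusive = mean below that limit but half or more replicates reach it; inactive = mean below it, under half of replicates reach it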;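 note: signal also drops with host cell toxicity which is not excluded here; 0% = plate median of DMSO wells and 100% = zero luminescence signal; higher percent means less beta-gal luminescence so fewer parasites; stock transfer was 50 nL into about 50 µL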
# LANA-H2B inh – blocks KSHV LANA binding to histone H2A/H2B; Q9QR71; cell-free LANA-H2A/H2B peptide, fluorescence polarization; 320,000 tested, 0.6% active; inhibition, % (test concentration not listed); in the data active = inhibition mostly above about 10%, no sharp cut-off; inactive = mostly below about 6.7%;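 note: stock transfer was 7.5 nL into about 10 µL; 0% = median of vehicle wells and 100% = median of positive control wells; one replicate is shown; the record names a cut of 25% in any replicate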
# Target sequence (Q9QR71 whole entry, looked up): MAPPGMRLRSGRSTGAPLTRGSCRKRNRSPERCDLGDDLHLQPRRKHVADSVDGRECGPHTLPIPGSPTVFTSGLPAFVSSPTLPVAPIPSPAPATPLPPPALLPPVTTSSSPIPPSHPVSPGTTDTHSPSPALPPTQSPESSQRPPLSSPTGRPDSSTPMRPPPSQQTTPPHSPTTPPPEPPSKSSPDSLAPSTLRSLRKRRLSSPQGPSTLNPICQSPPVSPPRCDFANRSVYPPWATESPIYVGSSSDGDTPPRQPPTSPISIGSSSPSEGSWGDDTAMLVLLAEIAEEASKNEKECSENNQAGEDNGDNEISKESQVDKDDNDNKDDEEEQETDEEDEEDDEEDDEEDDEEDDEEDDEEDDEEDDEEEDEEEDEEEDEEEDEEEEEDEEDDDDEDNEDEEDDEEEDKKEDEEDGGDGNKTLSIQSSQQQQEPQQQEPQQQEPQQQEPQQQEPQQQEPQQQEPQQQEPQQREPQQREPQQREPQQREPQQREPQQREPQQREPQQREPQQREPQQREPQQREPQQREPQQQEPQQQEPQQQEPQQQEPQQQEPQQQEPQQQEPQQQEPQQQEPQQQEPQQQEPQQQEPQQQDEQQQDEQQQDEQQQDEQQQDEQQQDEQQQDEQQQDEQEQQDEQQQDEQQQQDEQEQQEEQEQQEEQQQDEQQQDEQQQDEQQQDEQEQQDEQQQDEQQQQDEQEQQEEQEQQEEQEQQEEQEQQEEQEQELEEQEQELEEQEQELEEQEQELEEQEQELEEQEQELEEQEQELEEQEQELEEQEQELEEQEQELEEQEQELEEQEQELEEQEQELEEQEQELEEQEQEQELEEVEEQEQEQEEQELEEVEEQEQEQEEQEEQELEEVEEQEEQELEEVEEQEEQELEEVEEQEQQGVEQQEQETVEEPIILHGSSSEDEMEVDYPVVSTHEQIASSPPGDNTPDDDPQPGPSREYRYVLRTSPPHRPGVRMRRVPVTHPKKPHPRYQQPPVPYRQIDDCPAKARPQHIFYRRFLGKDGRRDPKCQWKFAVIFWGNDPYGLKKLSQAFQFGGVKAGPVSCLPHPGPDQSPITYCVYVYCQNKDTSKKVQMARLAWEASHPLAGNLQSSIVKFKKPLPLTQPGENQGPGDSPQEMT
# Calb FLC – C. albicans growth modulation with fluconazole | growth inhibition, % (no concentration beside the values) | C. albicans CaCi-2 (fluconazole-resistant clinical isolate) + fluconazole, Alamar Blue growth, 48 h | 300,000 tested, 0.57% active;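 active = most replicates above 75%; inconclusive = exactly half above 75%; inactive = most below 75%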;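 note: all wells also contain fluconazole at 8 µg/ml as a sub-toxic cotreatment; 0% = median of DMSO wells and 100% = median of geldanamycin control wells; wells of about 8 µL received 7.5 nL stock; the first replicate is given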
# rRNA inh HTS OD600 – also measured in rRNA inh HTS; calls as there; OD600 change, %; measured here: OD600 growth;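 optical density of the mix in the first replicate; 0 = DMSO median and -100 = no signal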
# rRNA inh HTS RFP – recorded beside rRNA inh HTS, whose call it bears; RFP signal change, %; measured here: RFP humanized mutant strains;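 first replicate; 0 = DMSO median and -100 = no signal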
# Active calls of the source: *; u = inconclusive; x = no result given. An excerpt, so the mix of outcomes need not match the whole.
SMILES,Beta cell apopt,A1 inh,ALR inh,rRNA inh HTS,rRNA inh HTS OD600,rRNA inh HTS RFP,Beta2AR agonist,T cruzi repl,LANA-H2B inh,Calb FLC
Cc1cc(C)n(-c2nc3ccccc3c(=O)n2OCC(=O)N(C)C)n1,7,-0.4,x,x,x,x,8,-13,4.2,-7
O=C(Nc1ccc(C(=O)N2CCCCC2)cc1)C1=CSCCO1,17,-17,1,2,4,-3.7,-7,3,-0.7,-4
CCN(Cc1ccccc1)C(=O)C1CCN(C/C(C)=C/c2ccccc2)CC1,-5,-0.4,0,5,-8,-1.2,-3,5,-4.8,-12
Cc1nnc(NC(=O)C2CCCN(S(=O)(=O)c3ccccc3C(F)(F)F)C2)s1 (centres undefined),-6,-0.6,1,x,x,x,-3,8,2.2,-6
CCOC(=O)c1ccc(Nc2cc3ccccc3c(=O)[nH]2)cc1,x,1.0,-16,12,-6,12,-4,-10,-1.4,5
Cc1nn(CC(=O)Nc2ccc(Cl)cn2)c(C)c1Br,6,0.3,34,x,x,x,8,-1,-6.0,-4
Cc1ccc(C)c(OCc2cc(C(=O)N3CCc4sccc4C3)no2)c1,-12,-0.2,-9,1,1,-2.6,3,16,3.8,21
C=C(C)C1CC=C(C)/C(=N/NC(=O)c2ccccc2[N+](=O)[O-])C1 (centres undefined),4,0.6,-16,10,4,-0.9,-27,2,7.8,43
CCC(C)NC(=O)C1CCCN1S(=O)(=O)c1ccc(Cl)cc1 (centres undefined),-8,-0.4,x,2,4,0.1,-7,-3,4.8,-9
CSc1nc(-c2ccco2)cc(-c2ccccc2)c1C#N,2,0.9,-2,x,x,x,1,3,-3.3,4
Cc1cc(C)c(NC(=O)COC(=O)c2c(C)noc2C)c(Cl)c1,0,2.5,-8,x,x,x,1,x,-1.0,x
Cc1nc(C)c(C(=O)OCC(=O)NCCc2ccc(S(N)(=O)=O)cc2)s1,-3,1.1,-1,12,16,1.6,-1,x,-3.3,x
CC(C)(O)CCc1c(-c2ccc(O)cc2O)oc2c3c(cc(O)c2c1=O)OC(C)(C)C=C3,5,0.2,22,-35,-46,-0.4,-9,11,8.2,-7
CCS(=O)c1ccccc1C(=O)O (centres undefined),-1,0.0,x,x,x,x,-4,-8,-0.6,-6
CCCNC(=O)CC1Sc2ccccc2NC1=O (centres undefined),0,0.6,1,x,x,x,11,-5,0.4,-9
COc1ccc(C(CNC(=O)COc2ccccc2C)N2CCCC2)cc1 (centres undefined),-4,0.6,3,2,5,-0.4,-2,14,-0.5,-1
OCc1cn(-c2ccccc2)nc1-c1ccc(Br)cc1,-6,1.5,x,2,32,0.0,-3,-6,1.3,-5
Cc1ccccc1C(=O)Nc1ccnn1C1CCN(Cc2cnn(C)c2)CC1,x,0.2,-2,13,8,1.0,3,48,5.3,0
Cn1nc(C(=O)Nc2sc3c(c2C#N)CCCC3)ccc1=O,0,1.1,-4,18,10,1.4,-11,5,-0.2,0
CCCCCCNc1nc(Cl)nc(NC(C)(C)CO)n1,-2,-0.5,x,-4,0,-2.1,-10,10,4.6,-5
CCOC(=O)c1cccc(NC(=O)CSc2nnc(-c3cccnc3)n2C)c1,-3,0.7,x,x,x,x,7,2,-1.1,-12
Cc1onc(-c2c(F)cccc2Cl)c1C(=O)OCn1nnc2ccccc2c1=O,-12,2.3,-6,x,x,x,-9,x,1.3,x
CCCCn1c(=O)[nH]c(=O)c2c1nc(-c1ccc(-c3ccccc3)cc1)n2C,6,-0.4,4,3,9,0.6,-1,8,3.6,-12
CN(C)/C=C/C(=O)c1cccc([N+](=O)[O-])c1,-3,0.2,u,5,10,-2.7,1,-12,1.5,-17
COc1ccc(S(=O)(=O)NCc2ccco2)cc1NC(=O)c1ccccc1,-1,0.8,1,-4,1,0.7,-8,13,0.0,5
COC(=O)c1cccc(NC(=O)CSCc2ccccc2)c1,x,0.1,-8,-12,-7,-11,6,-8,4.9,2
Cc1cc(NC(=O)C2CCCCC2)ncc1NC(=O)c1ccccn1,-1,-2.2,x,-1,-3,0.3,-4,-6,3.6,33
CC1CC(NC(=O)/C(C#N)=C/c2ccc[nH]2)CC(C)(C)C1 (centres undefined),9,-0.5,x,-2,-21,18,-6,-15,-4.3,9
COCCNC(=O)c1onc(CSc2nc3ccccc3[nH]2)c1C(=O)NCCOC,4,-0.7,-1,7,4,-0.9,-1,-13,3.3,3
CC1CCN(C(=O)COC(=O)c2ccc(F)c(S(=O)(=O)N3CCOCC3)c2)CC1,-4,-0.6,-5,10,2,-0.3,-7,2,-1.1,3
CN(CC(=O)N1CCCCCC1)S(=O)(=O)c1ccc(Br)s1,2,0.0,1,x,x,x,x,-6,5.1,-29
CCc1cc2c(-c3ccccc3)cc(=O)oc2cc1OCC(C)=O,5,-0.1,-4,3,1,2.9,-14,8,4.8,12
CCn1cc(CN2CCC(C(=O)Nc3cccc(-c4cccc(Cl)c4)c3)CC2)cn1,x,0.1,26,0,-8,4.1,20,16,-0.3,4
COc1cccc(NC(=O)N2CCC(NC(=O)C(Cc3ccccc3F)NC(C)=O)CC2)c1 (centres undefined),-2,0.0,x,5,6,-2.0,2,-9,-3.7,-13
COc1cccc(/C=N/Nc2ccc(S(=O)(=O)O)cc2)c1O,-6,-3.4,-1,x,x,x,-7,-12,-1.0,-6
CSCC[C@H](NC(=O)Nc1ccc(C)cc1C)C(=O)O,-3,0.2,2,x,x,x,7,-8,2.6,12
CCOc1ccc(-n2ccnc2SCC(=O)Nc2nnc(CC)s2)cc1,x,0.9,0,x,x,x,-3,-22,-1.2,0
COc1ccc(C(=O)CSc2nccn2C)c(OC)c1,-1,-6.3,73,15,10,3.5,16,-2,0.6,1
O=C1OCCC1Sc1nnc(-c2ccc(F)cc2)n1Cc1ccccc1 (centres undefined),x,0.6,-2,x,x,x,-1,-7,-9.0,-17
Cc1nc2sccn2c(=O)c1S(=O)(=O)NCCc1ccccc1,-4,-0.2,0,6,2,-2.5,15,-25,-5.7,1
O=C(NCC1CCCO1)/C(=C/c1ccccc1F)NC(=O)c1ccccc1 (centres undefined),-1,-0.5,-9,8,4,-0.2,2,6,-2.1,-4
Cc1ccc(OCC(=O)NCCCNC(=O)c2ccco2)cc1,2,-1.0,-3,0,-1,0.3,0,-11,2.6,8
O=C(NCC1CCCO1)c1ccc(C(=O)NCC2CCCO2)cc1 (centres undefined),-6,0.4,-7,x,x,x,19,-17,-0.1,-3
O=C1C2C(C(=O)N1/N=C/c1ccco1)C1C=CC2C12CC2 (centres undefined),-9,-0.3,-9,13,-8,-2.3,-10,-7,-0.9,5
CCOc1ccc(OCCC(=O)N(CCCOC)c2c(N)n(Cc3ccccc3)c(=O)[nH]c2=O)cc1,-1,-0.5,0,7,8,-1.0,4,-7,6.3,1
CCOC(=O)CNC(=O)CSc1nnc(-c2ccncc2)n1-c1ccc(Cl)cc1,x,0.9,-6,x,x,x,9,-19,-1.2,-20
CCN(CC)S(=O)(=O)c1ccc(Oc2ccccc2)c(N)c1,-4,-0.3,-4,-14,-10,1.4,3,1,-3.1,-20
COC(=O)c1cc(Oc2ccc(S(=O)(=O)N3CCOCC3)cc2[N+](=O)[O-])cc(C(=O)OC)c1,2,1.5,x,-3,6,-0.2,19,x,4.4,x
N=c1c(C(=O)NC2CCCCC2)cc2c(=O)n3ccccc3nc2n1Cc1ccc(F)cc1,9,-0.5,-13,6,-1,0.2,-1,4,16,-8
O=C(c1cccc2c1-c1ccccc1C2)N1CCCCC1,x,0.5,x,-22*,-11*,3.1*,-8,-9,1.5,-4
Cc1ccccc1CC(=O)Nc1sc(C(C)C)cc1C(=O)N1CCOCC1,x,0.5,24,0,-3,-0.8,-9,5,-2.3,-2
O=C(NCCc1c[nH]c2ccccc12)c1ccc(Br)o1,-4,0.5,6,-1,-17,6.0,8,x,-1.4,x
O=C(N/C(=C/c1ccccc1Cl)C(=O)N1CCOCC1)c1ccccc1,-4,-0.8,x,x,x,x,2,x,3.2,x
C=CCn1c(SCC(=O)N(C)C2CCCCC2)nnc1C1CC1,-2,0.7,-4,7,2,0.6,6,x,-1.8,x
O=C(NCCc1ccc(Cl)cc1)C1CCN(S(=O)(=O)N2CCCCC2)CC1,-8,1.7,-4,3,-3,-2.8,-5,19,-2.5,7
C/C(=N/NC(=O)C(C)n1nc(C)c([N+](=O)[O-])c1C)c1ccc(OCC(N)=O)cc1 (centres undefined),x,0.6,2,7,6,2.9,-1,-3,-0.2,-4
O=C(COc1ccc(Br)cc1)N1CCOCC1,-9,-0.8,-3,x,x,x,3,6,-2.6,2
O=C1OC(c2ccccc2)C2(CCCC2)C(=O)C12CCCC2 (centres undefined),2,0.8,x,x,x,x,4,-9,3.4,-14
O=C(CN(C(=O)CNC(=O)c1ccco1)c1ccc2c(c1)OCCO2)NC1CCCC1,8,-0.2,-7,18,11,4.2,4,-5,-6.1,-7
Cc1ccn2cc(-c3cccc(NC(=O)c4ccccc4)c3)nc2c1,7,-3.3,40,x,x,x,-7,22,-2.0,6
# (listing goes on)
SMILES,Beta cell apopt,A1 inh,ALR inh,rRNA inh HTS,rRNA inh HTS OD600,rRNA inh HTS RFP,Beta2AR agonist,T cruzi repl,LANA-H2B inh,Calb FLC
COc1cc2c(cc1OC)C1=CC(=O)C(=O)N1C(C)(C)C2,6,0.2,-1,81,-3,68,-272,4,-2.8,-3
Cc1cccc(C(=O)NC2CCN(CC(=O)NCc3ccccc3F)CC2)c1,1,0.2,-23,5,5,-0.5,-8,-2,-0.8,-7
Cn1c(=N)n(CC(=O)c2ccc(Br)s2)c2ccccc21,-3,-1.1,x,x,x,x,25,-8,3.2,-18
Cc1ccc(S(=O)(=O)N2CCOCC2)cc1NC(=O)CN1C(=O)NC2(CCCC2)C1=O,-6,-0.8,-6,6,13,0.5,-9,x,0.8,x
COc1ccc(NC2=C(C(C)=O)C(c3ccccc3)C(C(C)=O)C(C)(O)C2)cc1 (centres undefined),0,1.0,-17,-27*,-11*,-2.7*,1,6,1.6,-8
CCn1c(SCC(=O)N/N=C/c2ccncc2)nc2ccccc21,-4,0.5,-4,-3,4,1.7,-6,5,1.7,3
CCOc1ccc(CNC(=O)C2CCN(S(=O)(=O)N3CCCC3)CC2)cc1OC,2,0.3,x,x,x,x,-5,0,0.9,-9
CCn1c2ccccc2c2cc(N=C3SC(CC(=O)Nc4ccccc4OC)C(=O)N3CCOC)ccc21 (centres undefined),9,0.4,-20,x,x,x,3,31,2.0,4
CC(NC(=S)Nc1c(Cl)cccc1OC(F)F)C(C)(C)C (centres undefined),-10,1.1,25,x,x,x,-3,5,-1.6,14
C=CCn1c(SCC(=O)Nc2ccccc2C)nc(O)cc1=O,2,0.3,92*,5,2,0.7,2,4,-12,13

# An excerpt of these results, with bars between the fields.
compound | Beta cell apopt | A1 inh | ALR inh | rRNA inh HTS | rRNA inh HTS OD600 | rRNA inh HTS RFP | Beta2AR agonist | T cruzi repl | LANA-H2B inh | Calb FLC
CCOc1ccc(CNC(=O)C2CCN(S(=O)(=O)N3CCCC3)CC2)cc1OC | 2 | 0.3 | x | x | x | x | -5 | 0 | 0.9 | -9
Cc1cccc(C(=O)NC2CCN(CC(=O)NCc3ccccc3F)CC2)c1 | 1 | 0.2 | -23 | 5 | 5 | -0.5 | -8 | -2 | -0.8 | -7
